# Source: PubChem BioAssay (ICCB-Longwood Screening Facility, Harvard Medical School)
# PV pol inh = poliovirus RNA polymerase inhibition; P03300; hit rate 0.66% among 150,000; AID 588519; % elongation, % (compound at 16.7 µg/mL); poliovirus polymerase elongation, fluorescence polarization; hits give low values; in the data active = % elongation below about 90%; note: some results filed as inactive read as strong as hits
# Mtb MenB inh = inhibitors of Mycobacterium tuberculosis MenB enzyme | MenB enzyme assay, absorbance read-out; some hits fall short of the stated cut | inhibition, %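 (about 12 µg/mL by stock and volumes)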 | hit rate 0.43% among 100,000 | AID 540299;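 active = mean of two replicates above 30%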;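 note: 0% = no compound and 100% = wells with inactive enzyme; the first replicate is given; strong numbers were not always called active; inactives centre near -10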
# Target sequence (P9WNP5 whole entry, looked up): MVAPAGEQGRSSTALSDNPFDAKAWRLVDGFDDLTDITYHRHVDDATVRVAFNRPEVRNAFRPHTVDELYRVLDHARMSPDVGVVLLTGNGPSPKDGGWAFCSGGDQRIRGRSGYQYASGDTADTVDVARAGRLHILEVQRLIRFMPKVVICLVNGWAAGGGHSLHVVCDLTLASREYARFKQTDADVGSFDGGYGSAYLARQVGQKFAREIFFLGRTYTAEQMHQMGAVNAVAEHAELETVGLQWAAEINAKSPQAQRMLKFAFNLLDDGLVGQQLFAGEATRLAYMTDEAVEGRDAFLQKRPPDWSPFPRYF
# MbtI inh = MbtI salicylate synthase inhibition; P9WFX0; hit rate 0.89% among 100,000; purified MbtI enzyme, fluorescence intensity read-out; inhibition, %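 (about 17 µg/mL by stock and volumes)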;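 active = above 50% in both replicates, above 80% if mildly self-fluorescent; inactive = the rest, strongly fluorescent compounds included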;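 note: 0% = mean of negative and 100% = mean of positive controls; one replicate is shown; some compounds called inactive have numbers as strong as hits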
# Target sequence (P9WFX0 whole entry, looked up): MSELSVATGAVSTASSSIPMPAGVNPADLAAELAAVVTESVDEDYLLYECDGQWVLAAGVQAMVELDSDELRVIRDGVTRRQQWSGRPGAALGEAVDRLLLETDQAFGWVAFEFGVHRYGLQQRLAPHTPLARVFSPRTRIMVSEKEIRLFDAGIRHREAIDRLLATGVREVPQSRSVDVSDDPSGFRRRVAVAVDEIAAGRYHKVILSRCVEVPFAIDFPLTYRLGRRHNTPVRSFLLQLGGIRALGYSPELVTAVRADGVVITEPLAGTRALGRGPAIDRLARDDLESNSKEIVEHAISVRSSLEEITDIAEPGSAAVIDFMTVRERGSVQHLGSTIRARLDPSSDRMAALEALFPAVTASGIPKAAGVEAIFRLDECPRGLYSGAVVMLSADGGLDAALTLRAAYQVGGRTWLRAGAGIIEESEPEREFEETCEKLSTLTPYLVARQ
# PV pol inh intensity = second read-out of PV pol inh, no call of its own (marks repeat the call); % elongation; measured here: total intensity read-out; formula for this scale not given here;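 total fluorescence in place of polarization; lower means less elongation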
# * = called active by the depositor; . = not tested or not shown; & = joins results of further samples.
Molecule,PV pol inh intensity,PV pol inh,Mtb MenB inh,MbtI inh
c1ccc(-c2ccc3c4ccccc4cc-3o2)cc1,110,105,-5,-9
O=C(NC(=S)NC1CCSC1=O)c1ccco1 (stereo unspecified),101,100,3,5
Cc1ccc(C)n1-c1cc(Cl)ccc1N1CCCCC1,106,101,-21,14
O=S(=O)(c1ccc(F)cc1)N1CCc2[nH]c3ccc(F)cc3c2C1,104,103,6,7
CN(C)CCn1c2c(c(SCC(=O)NCc3ccccc3)nc1=O)CCCC2,104,102,-17,-6
O=C(O)c1cc(=O)n(CN2CCC(Cc3ccccc3)CC2)c(=O)[nH]1,104,99,-11,-2
O=c1[nH]n(CNc2ccc(F)cc2)c(=O)c2ccccc12,88,91,-36,.
CCN(CC)S(=O)(=O)c1ccc2c(c1)nc(SCC(=O)NC1CC1)n2-c1ccccc1OC,109,102,-9,-1
CC(NCCN1C(=O)S/C(=C\c2ccccc2F)C1=O)=C(C#N)C#N,109,102,-23,-2
O=C(NCc1ccc(S(=O)(=O)NCCN2CCOCC2)s1)c1ccccc1,106,107,-12,-10
O=C1C2C3C=CC(C3)C2C(=O)N1CCC1=CCCCC1 (stereo unspecified),99,101,1,8
COc1cc(NS(=O)(=O)c2ccc(NC(=S)NC(=O)c3ccco3)cc2)ncn1,107,100,-20,.
Cc1nn(CCCC(=O)NCCc2cccs2)c(=O)c2c1sc1ccccc12,101,106,-6,89
COCCn1ccc2nc(C)c(C(=O)Nc3ccccc3)cc2c1=O,101,100,1,56
COC(=O)c1sc(SC)c(C#N)c1-c1ccc(Br)s1,103,104,-16,11
CCc1ccc(-n2cc3c(c(C#N)c2=N)CC(C)(C)CC3=O)cc1,110,106,-4,-2
CC1CC(C)CN(CCCNC(=O)c2cc3c(=O)[nH]c4ccccc4c3s2)C1 (stereo unspecified),96,99,-9,13
CCCSc1nsc(NC(=O)c2cnc3ccccc3n2)n1,114,110,-13,5
O=C(COc1ccccc1)N1CCCCCCC1,104,101,-3,-2
O=C(CSc1nnc(C2CC2)n1C1CC1)c1ccc2c(c1)OCO2,105,102,-7,-1
CC(CN)(NS(=O)(=O)c1ccccc1)c1ccccc1 (stereo unspecified),104,103,3,-2
CN(C)/C=C1\N=C(c2cccnc2Oc2ccc(Cl)cc2)OC1=O,111,102,-4,-9
O=C(c1ccc(=O)[nH]n1)N1CCc2ccccc21,100,106,-27,5
CC(=O)N1CC=C(c2c(C)[nH]c3ccccc23)CC1,108,98,0,12
CCCc1cc(NCC2CCCO2)n2c(nc3ccccc32)c1C#N (stereo unspecified),105,97,2,106
O=C1Nc2ccccc2/C1=C\c1ccccc1N1CCN(Cc2ccccc2)CC1,117,105,-45,-6
N#Cc1ccsc1NC(=O)COc1ccc(-c2nnco2)cc1,115,108,-12,8
O=C(Nc1ccccc1C(F)(F)F)C1CCC1,103,101,14,-7
NS(=O)(=O)c1ccc(NC(=O)CC2SC(=O)NC2=O)cc1 (stereo unspecified),102,100,11,0
CC1CCN(C(=O)c2ccc3nc(N4C(=O)CCC4=O)sc3c2)CC1,102,101,21,-4
COCCn1c(O)c(C(C)=NCC(C)(C)N2CCOCC2)c(=O)[nH]c1=S,113,108,8,17
CN(C1CCCCC1)S(=O)(=O)c1ccc(N)cc1,107,102,-12,.
Cc1noc2nc(-c3cccs3)cc(C(=O)NNC3=NCCCCC3)c12,94,100,-2,2
CC(C)C1N(C(=O)N(C)C)CCN1S(=O)(=O)c1ccccc1 (stereo unspecified),99,102,-70,1
CCOc1ccc(N(CC(=O)Nc2ccccc2)S(C)(=O)=O)cc1,100,103,-37,2
OC(COCc1ccccc1F)CN1CCCC1 (stereo unspecified),105,100,.,-9

# Taken from the entries so far for reference:
Molecule,PV pol inh intensity,PV pol inh,Mtb MenB inh,MbtI inh
CC1CCN(C(=O)c2ccc3nc(N4C(=O)CCC4=O)sc3c2)CC1,102,101,21,-4
COCCn1c(O)c(C(C)=NCC(C)(C)N2CCOCC2)c(=O)[nH]c1=S,113,108,8,17
CN(C1CCCCC1)S(=O)(=O)c1ccc(N)cc1,107,102,-12,.
Cc1noc2nc(-c3cccs3)cc(C(=O)NNC3=NCCCCC3)c12,94,100,-2,2
CC(C)C1N(C(=O)N(C)C)CCN1S(=O)(=O)c1ccccc1 (stereo unspecified),99,102,-70,1
CCOc1ccc(N(CC(=O)Nc2ccccc2)S(C)(=O)=O)cc1,100,103,-37,2
OC(COCc1ccccc1F)CN1CCCC1 (stereo unspecified),105,100,.,-9

# Later entries:
Molecule,PV pol inh intensity,PV pol inh,Mtb MenB inh,MbtI inh
Cc1cc(=O)oc2cc(OC(C)C(=O)NC3CCCCCC3)ccc12 (stereo unspecified),96,107,-18,.
CC(C)COC1C(=O)CCCC1CC(=O)O (stereo unspecified),103,103,-15,-16
COc1ccc(S(=O)(=O)N(C)S(=O)(=O)c2ccc3ccccc3c2)cc1,103,97,-41,71
CN(C)CCCN1CNC(=S)NC1,104,101,-5,4
Cc1nc2sccn2c1C(=O)c1ccccc1,100,100,.,3
CCOC(=O)Cc1ccc2sc(-c3ccccc3)nc2c1,107,103,.,-5
CC(=O)Oc1cccc(-c2nc(C(N)=O)c(N)o2)c1,104,100,-10,-95
CC1=NN(c2ccc(Cl)cc2)C(=O)C12Cc1c(C)nn(-c3ccccc3)c1N1CCCC12 (stereo unspecified),.,.,-19,8
O=S(=O)(c1cccc2nsnc12)N1CCN(C/C=C/c2ccccc2)CC1,102,100,7,-4
O=C(CCC(=O)Nc1cccc2ccccc12)Nc1cccc2ccccc12,110,103,-4,.
Cc1cc(C(=O)COC(=O)c2ccc3c(c2)C(=O)N(Cc2ccco2)C3=O)c(C)n1C,109,104,-9,-12
Cc1sc2nc(SCC(=O)NC3CCCCC3)[nH]c(=O)c2c1C,104,102,7,14
O=C1/C(=C\c2ccc(Br)o2)CCC/C1=C\c1ccc(Br)o1,103,100,8,86
CN1C(=O)NC(=O)/C(=C/c2ccc(F)cc2)C1=O,104,98,-60,11
Cc1ccc(-c2n[nH]c3c2C(c2ccccc2Cl)N(c2ccc(Cl)cc2)C3=O)cc1 (stereo unspecified),107,104,-7,-6
CN(C)c1ccc(/C=C2/SC(=O)N(CCN=C3NS(=O)(=O)c4ccccc43)C2=O)cc1,102,103,-31,0
O=C(NC1CCCCCCC1)c1ccc(CNS(=O)(=O)c2ccc(F)cc2)cc1,106,102,-17,-11
Cc1cccc(N2C(=O)c3cccc4c(N5CCNCC5)ccc(c34)C2=O)c1,183,69,-38,-8
Cc1cnc(C(=O)OCc2ccc(Br)cc2)cn1,109,104,3,-2
OCCCNc1nnc(-c2ccccc2)c2ccccc12,101,98,-1,-1
CCOC(=O)N1CCN(C(=O)CCCn2c(=S)[nH]c3ccc(Br)cc3c2=O)CC1,105,101,2,-1
CCOc1nc(SC)nc2sc3c(c12)CC(C)(C)OC3,104,100,3,-4
O=C(COC(=O)C1CCN(S(=O)(=O)c2ccc3c(c2)OCCO3)CC1)Nc1cc(C(F)(F)F)ccc1Cl,104,103,-18,-14
CC(C)(C)OC(=O)N1CCN(C(=O)OC(C)(C)C)CC1,103,102,-59,-3

# Sorted by length of the SMILES (high to low): part of the list above.
Molecule,PV pol inh intensity,PV pol inh,Mtb MenB inh,MbtI inh
O=C(COC(=O)C1CCN(S(=O)(=O)c2ccc3c(c2)OCCO3)CC1)Nc1cc(C(F)(F)F)ccc1Cl,104,103,-18,-14
Cc1ccc(-c2n[nH]c3c2C(c2ccccc2Cl)N(c2ccc(Cl)cc2)C3=O)cc1 (stereo unspecified),107,104,-7,-6
CC(C)(C)OC(=O)N1CCN(C(=O)OC(C)(C)C)CC1,103,102,-59,-3

# (more compounds)
Molecule,PV pol inh intensity,PV pol inh,Mtb MenB inh,MbtI inh
CN(Cc1cccs1)C(=O)CN1C(=O)C2CC=CCC2C1=O (stereo unspecified),109,102,4,-4
CCc1nn2c(=O)cc(COc3ccc(/C=C4\C(=O)NN(c5ccccc5)C4=O)cc3)nc2s1,103,101,2,-6
O=C1CCCC2=C1C(c1cccc(Cl)c1)n1c(nc3ccccc31)N2 (stereo unspecified),103,101,-5,-1
C=CCn1c(C)cc(C(=O)CN2C(=O)NC(CCSC)C2=O)c1C (stereo unspecified),102,105,-40,15
COc1ccccc1NC(=O)[C@H](Cc1ccccc1)N1Cc2ccccc2C1=O,99,103,-3,-2
O=C(Nc1ccc2[nH]c(=O)[nH]c2c1)c1ccc2c(=O)n3c(nc2c1)CCCCC3,104,104,-3,99
Cc1nnc(SCC(=O)Nc2ccc(C#N)c(Cl)c2)n1N,105,104,-7,5
Cc1cc(-n2c(C)cc(C(=O)CSCc3ccccc3F)c2C)no1,101,105,-18,22
COCC(C)NCc1ccc2ccccc2c1 (stereo unspecified),100,100,-22,-7
COc1ccc(C/C(C)=N/NC(N)=O)cc1OC,103,102,-17,-10
CCOC(=O)C1=C(N)OC2=C(C(=O)CCC2)C1c1cccnc1 (stereo unspecified),101,101,23,5
O=c1ccnc(SCc2ccc(Cl)cc2)[nH]1,105&105,101&102,10&-40,2&-1
CC(=O)Nc1ccc(Oc2cc(C#N)c(C#N)cc2N2CCOCC2)cc1,109,107,-12,.
Cc1noc(C)c1CSc1cc(C)c2ccccc2n1,102,99,-1,-23
CCOC(=O)c1nnn(-c2nonc2N)c1-c1ccccc1,102,101,0,0
COc1ccc(CNC(C)c2ccccc2)cc1 (stereo unspecified),104,110,0,.
O=C(OCc1ccccc1F)c1ccc(O)cc1,106,102,.,0
COc1ccc(CN2CC(C(=O)NCCCN3CCC(C)CC3)CC2=O)cc1 (stereo unspecified),103,102,4,17
CCOC(=O)c1cc2c(c(CSc3ccc(C(F)(F)F)cn3)c1)OCOC2,115,101,-2,-7
O=C(CCCc1nc(-c2ccccc2)no1)Nc1cccnc1,100,103,21,12
CC(C)(C)c1cc(C(F)(F)F)c(C#N)c(SCC#N)n1,101,98,-12,2
Cc1ccc(-c2cc(C(=O)NCCN(C)C)c3cc(Br)ccc3n2)o1,104,102,-40,23
CC1=C(C#N)C(=O)NC(=O)/C1=C/c1ccc(-c2cccc(C(=O)O)c2)o1,106,102,3,27
CC(C)(C)c1ccccc1OCCCCCn1ccnc1,99,92,-15,4
CN(C)/C=C(\C#N)c1ccccn1,99,102,-1,18
CCCNC(=O)c1cc(CC(C)C)on1,102,102,3,-8
COc1ccc(CCN(C)S(=O)(=O)c2cn(C)c(=O)n(C)c2=O)cc1OC,105,106,-3,-1
Cc1ccc(-c2nc(SC3CC(=O)N(c4ccccc4)C3=O)n[nH]2)cc1 (stereo unspecified),104,104,-1,40
CCNS(=O)(=O)c1cc(-c2nnc(OC)c3ccccc23)ccc1C,111,102,-17,-6
C(=N\n1cnnc1)/c1cccc(/C=N/n2cnnc2)c1,103,102,5,0
CCOc1ccc(-n2c(SCc3nc(N)nc(N)n3)nc3ccccc32)cc1,104,103,-30,2
Cc1cc(C)c(S(=O)(=O)N2CCN(C(=O)C3CC3)CC2)c(C)c1,99,97,-4,3
CC1CN(C(=O)C23CC4CC(C)(CC(C)(C4)C2)C3)CC(C)O1 (stereo unspecified),104,103,-17,-17
Cc1nc(C(F)(F)F)ccc1C(=O)N1CCSCC1,102,104,0,3
COC(=O)c1c(NC(=S)NC(=O)c2ccccc2)sc2c1CCCC2,100,99,-21,2
CC(=O)Oc1ccccc1C(=O)NCC1CCCO1 (stereo unspecified),99,105,-5,.
Cc1cc(C)c2oc(-c3cc(NC(=O)COc4ccccc4C)ccc3Cl)nc2c1,107,102,-33,0
C=CCOc1nnc(OCC=C)c2ccccc12,103,102,-3,6
CC(C)(C)OC(=O)/C(C#N)=C/C1CCCCC1,105,100,11,-6
CCn1c(=O)ccc2cc(OC)ccc21,101,101,-279,13
O=c1oc2ccccc2n1CCc1ccccc1,110,102,3,.
Cc1noc(C)c1CSc1nc2ccccc2c(=O)n1C(C)C,101,100,-28,5
CC(=O)NC(Cc1c[nH]c2ccccc12)C(=O)N1CCN(S(=O)(=O)c2ccccc2)CC1 (stereo unspecified),108,102,-13,-10
CCOC(=O)C1CCC(CNC(=O)NC(c2ccccc2)c2nnc(-c3ccccc3)o2)CC1 (stereo unspecified),102,102,-4,-1
c1ccc(-c2onc3ccc(-n4cccc4C4OCCO4)cc23)cc1,98,101,2,18
O=C(c1ccc(Cl)cc1)C(O)c1c[nH]c2ccccc12 (stereo unspecified),99,104,-20,-5
CC(OC(=O)c1ccccc1)C(=O)NCc1ccco1 (stereo unspecified),102,105,-7,-7
COc1ccc(Nc2nc(NCCCC(C)C)nc(OC)n2)c(OC)c1,102,99,-18,-7
CC1CCCCN1CCNc1ccc2nnc(-c3ccc(F)cc3)n2n1 (stereo unspecified),98,102,6,-61
c1ccc2c(c1)CCN(Cc1ccsc1)C2,103,100,3,-7
CCc1nn(CC(=O)O)c(=O)c2cc3ccccc3n12,99,103,9,49
CSC1=NCCN1C(=O)C12CC3CC(CC(C3)C1)C2,106,99,-9,0
CCOC(=O)c1nn(-c2ccc(OC)cc2)c(=O)c2c(N)scc12,90,97,-4,54*
CN(C)C(=O)C[n+]1cccc(/C=N/O)c1,107,101,-18,8
CC(C)Cn1c(SCn2nnc3ccccc3c2=O)nnc1-c1ccco1,.,.,-3,-8
